Source: PubChem BioAssay (National Center for Advancing Translational Sciences (NCATS))
miR-21 reporter: raises the signal of a miR-21 reporter | Potency, µM (doses to about 38.3 µM), for the others: at the highest dose reporter change, positive = more light | 340,000 tested, under 10 active | AID 2288 | HeLa miR-21 FLuc reporter, luciferase, 48 h; active = well fitted rising curve with a large enough effect; inconclusive = small, poorly fitted or top-dose-only effect; inactive = no such curve, though single readings can be large or run the other way;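 also: % of control where 0% means no effect; miR-21 action dims this reporter so a rising signal means less miR-21 action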
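HeLa cells stably expressing CMV-driven firefly luciferase with a downstream miR-21 binding sequence, endogenously expressing miR-21, were treated with titrations (up to about 40uM final) for 48 hours at 37 degree Celsius. Luciferase luminescence was read after lysis.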
Rango complex inh: Rango-importin beta binding inhibition | Q14974 | Rango CFP/YFP FRET sensor + importin beta, 45 min | Potency, µM (highest dose often 92.2 µM), inactives show top-dose inhibition of complex formation | 0.031% of 340,000 active | AID 540263; active = rising FRET ratio curve, often small or poorly fitted; inconclusive = mostly compound fluorescence or quenching in the first reads; inactive = flat curves in all reads;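 also: potency is read from the fitted curve at half-maximal effect; 0% = DMSO wells and 100% = buffer wells lacking importin beta; nearly all actives have a fitted effect of over 15% in size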
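FRET biosensor Rango (snurportin 1 IBB between N-terminal EYFP and C-terminal Cerulean), 50 nM in PBS/1 mM DTT/0.02% Tween-20/0.1% BSA, preincubated 5 min RT with compound; 0.125 microM importin beta added, 45 min RT, CFP/YFP FRET ratio read.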
Rango release inh: inhibition of RanGTP-driven Rango-importin beta dissociation; O95149+P62826; AID 540253; Potency, µM (top dose mostly 46.1 µM), for inactives: top-dose activity change, negative = inhibition; Biochemical FRET Rango-importin beta, RanGTP-induced dissociation; 0.071% of 340,000 active; active means falling FRET ratio curve, often poorly fitted, with flat reads before Ran was added; inconclusive means other falling curves, or compound fluorescence or quenching; inactive means flat or rising ratio curve;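 also: potency is read from the fitted curve at half-maximal effect; % of control where 0% means no effect; nearly all actives have a fitted effect of over 45% in size; -100% = wells without RanGTP and RCC1; the record marks most hits as doubtful in a second field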
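Recombinant Rango FRET biosensor (EYFP–snurportin 1 IBB–cerulean CFP10) at 0.1 uM premixed with 0.25 uM importin beta in PBS, 1 mM DTT, 0.02% Tween-20, 0.1% BSA. Compound added 5 min; RanGTP-RCC1 (0.6 uM Ran, 2 mM GTP, 0.2 uM RCC1) then triggers release, read at 45 min.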
GLA inh pH 4.5: blocks human alpha-galactosidase A at pH 4.5; P06280; purified enzyme, 4-MU-alpha-Gal fluorescence, pH 4.5; activity change, negative = inhibition, % at 105 µM; 230,000 tested, under 10 active; inconclusive = small, poorly fitted or top-dose-only inhibition, or a rising curve; inactive = flat fitted curve, though single readings scatter; no compound was filed as active;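 also: 0% = full activity with enzyme and -100% = basal without enzyme; dose as in the result columns while the protocol names 77 µM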
Target sequence (P06280 whole entry, looked up): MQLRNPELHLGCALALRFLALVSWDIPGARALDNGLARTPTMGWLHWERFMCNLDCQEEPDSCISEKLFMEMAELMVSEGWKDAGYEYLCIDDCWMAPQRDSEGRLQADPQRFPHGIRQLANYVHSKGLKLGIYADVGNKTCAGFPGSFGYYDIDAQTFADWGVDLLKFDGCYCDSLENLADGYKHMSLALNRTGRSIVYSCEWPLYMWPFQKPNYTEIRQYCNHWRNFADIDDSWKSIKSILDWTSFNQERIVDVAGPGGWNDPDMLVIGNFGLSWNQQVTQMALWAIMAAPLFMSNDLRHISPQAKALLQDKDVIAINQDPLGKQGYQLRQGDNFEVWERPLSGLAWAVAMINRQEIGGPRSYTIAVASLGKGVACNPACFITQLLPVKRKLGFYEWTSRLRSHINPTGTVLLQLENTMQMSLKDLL
The depositor's hits bear a star; ? = inconclusive; . = no result given; & = joins results of further samples. These rows are one share of the data (hit frequency here may not be typical).

mol,miR-21 reporter,Rango complex inh,Rango release inh,GLA inh pH 4.5
O=[N+]([O-])c1ccc(N2N=C(c3ccco3)CC2c2ccccc2)cc1 (stereo not given),-4%,?,?,-7
NC(=O)c1ccccc1NC(=O)COC(=O)C1(c2ccccc2)CC1,.,-0.8%,-8%,.
Cc1ccc2c(c1)nnn2C1CCN(C(=O)Nc2ccccc2C)CC1,-5%,0.2%,2%,6
COCc1c(C(=O)OCc2nc3ccsc3c(=O)[nH]2)oc2ccccc12,.,-0.3%,-18%,.
COCCOC(=O)c1c(C)oc2ccc(O)c(CN3CCC(C)CC3)c12 (tested in a mixture with another compound),.,-1.7%,-10%,.
O=C(NNC(=S)Nc1ccccc1)c1cccc(S(=O)(=O)N2CCOCC2)c1,-37%,-2.7%,-21%,7
COc1ccc(-c2nc(CS(=O)CC(=O)NC3CCCC(C)C3C)c(C)o2)cc1OC (stereo not given),-9%,-0.6%,-10%,.
Cc1ccc(C#CC[N+]2(C)CCCCC2)cc1,4%,0.4%,16%,2
O=C(Cc1ccc(Br)cc1)N1CCc2ccccc2C1,-49%,-0.7%,10%,.
CCOc1ccc(OCC)c(NC(=O)CCn2cccc2)c1,-6%,4.1%,-5%,2
COCCN1C(=O)C(=O)/C(=C(/O)c2cccc(OC)c2)C1c1ccncc1 (stereo not given),1%,0.4%,0%,-5
Cc1ccc(CNC(=O)c2ccc(N3CCC4(CC3)CC(c3cccc(Br)c3)=NO4)c(NC(=O)c3ccccc3)c2)cc1,.,2.1%,-2%,.
N#CC(C#N)=c1ccc2c(c1)N1C(c3ccccc3)=CC(c3ccccc3)C3CCCCC31N=2 (stereo not given),0%,0.7%,4%,5
CCn1c(SCC(=O)Nc2cc(C)on2)nnc1-c1cccs1,-2%,2.5%,12%,-1
CCc1cc(CNC(=O)CC2C(=O)NCCN2Cc2ccc(-c3ccccc3)cc2)on1 (stereo not given),1%,-1.3%,-5%,.
Cc1ccc(C(=O)NC2CCCc3ccccc32)o1 (stereo not given),-1%,0.6%,17%,-3
Cc1ccc(NS(=O)(=O)c2ccc(NC(=O)N3CCCCC3)cc2)cc1,0%,0.3%,-11%,.
CC(Oc1ccc2c(-c3ccccc3)cc(=O)oc2c1)C(=O)NCCCn1ccnc1 (stereo not given),14%,-0.7%,2%,.
CSC1=NCCN1C(=O)c1cccs1,-9%,-4.2%,?,4
O=C(NCc1cccc2ccccc12)Nc1ccccc1,-33%,-2.5%,-9%,-1
Cc1ccc(Nc2nc(N3CCOCC3)c3ccccc3n2)cc1,9%,0.2%,-11%,-2
COCCC(=O)N1CCC(Oc2ccc(C(=O)NCc3cc(C)n(C)n3)cc2)CC1,1%,3.1%,-5%,.
CC(=O)C1=C(O)C(=O)N(Cc2cccnc2)C1c1ccc(Cl)cc1Cl (stereo not given),-6%,1.3%,10%,-5
COc1ccc(-c2noc(CCC(=O)N3CCN(c4ccc(Cl)cc4)CC3)n2)cc1,.,-0.7%,26%,.
CC(C)c1ccc(NC(=O)CNC(=O)Cn2ccc3ccccc3c2=O)cc1,1%&4%,-1.4%,-2%,.
Cc1nn(-c2ccc(NC(=O)c3ccncc3)cc2)c(C)c1Cl,20%,1.1%,24%,.
CC(C)Nc1c(N)c(=O)oc2ccccc12,-5%,4.3%,4%,-3
CS(=O)(=O)N1CCC(C(=O)NCc2ccncc2)CC1,0%,?,-18%,7
Cc1ccc(-c2nn3c(C)nnc3c3ccccc23)cc1S(=O)(=O)NCc1ccccc1,-3%,?,14%,14
Cc1ccn2c(NC3CCCC3)c(-c3ccccn3)nc2c1,17%,0.4%,0%,0
CC1CCN(CCCNC(=O)C2CC(=O)N(C3CCCCCC3)C2)CC1 (stereo not given),-1%,-3.6%,3%,19
COc1ccc(CC2S/C(=N/N=C/c3ccccc3O)NC2=O)cc1 (stereo not given),0%,0.0%,14%,-2
COc1ccccc1/C=C/C=N/NC(=O)CN1CCN(S(=O)(=O)c2ccc(C)cc2)CC1,-1%,-5.2%,-10%,-14
CCCCc1c(C)c(C#N)c2nc3ccccc3n2c1Nc1c(C)n(C)n(-c2ccccc2)c1=O,0%,?,?,4
COc1ccccc1CC(=O)Nc1cccc(S(=O)(=O)N2CCOCC2)c1,2%,?,9%,.
O=C(NC1CCCCC1)N1CCN(c2ccc([N+](=O)[O-])cc2)CC1,5%,1.5%,-9%,.
C=C1C(=O)C=C2CN(C(=O)c3ccccc3)[C@@](Cc3ccc(F)cc3)(C(=O)OC)[C@@H]12,27%,-0.8%,-2%,1&-8
COc1cc(OC)c(N2CC34C=CC(O3)C(C(=O)O)C4C2=O)cc1Cl (stereo not given),-1%,1.3%,8%,-14
COc1ccc(CCNC(=O)C2COc3ccccc3O2)cc1OC (stereo not given),.,-0.2%,-13%,.
CCOc1ccc2oc(C(=O)NCc3nc4ccccc4[nH]3)c(C)c2c1,-2%,-0.4%,-1%,.
O=[N+]([O-])c1ccccc1S(=O)(=O)N1CCCc2ccccc21,-3%,-0.4%,-17%,.
Cc1ccsc1C(=O)NCc1ccc(Cl)cc1,.,-4.7%,0%,.
O=[N+]([O-])c1cc(S(=O)(=O)O)cc([N+](=O)[O-])c1NN(c1ccccc1)c1ccccc1,0%,1.0%,4%,.
CCN1CCN(C(=O)/C(=C/c2ccco2)NC(=O)c2ccccc2)CC1,-1%,-0.1%,-4%,.
Nc1ncc(CCN2CCOCC2)c(-c2ccc(F)cc2)n1,-10%,-0.7%,-7%,0

Quoted at random: three records from the list.
mol,miR-21 reporter,Rango complex inh,Rango release inh,GLA inh pH 4.5
Nc1ncc(CCN2CCOCC2)c(-c2ccc(F)cc2)n1,-10%,-0.7%,-7%,0
CCOc1ccc2oc(C(=O)NCc3nc4ccccc4[nH]3)c(C)c2c1,-2%,-0.4%,-1%,.
CCCCc1c(C)c(C#N)c2nc3ccccc3n2c1Nc1c(C)n(C)n(-c2ccccc2)c1=O,0%,?,?,4

Additional records.
mol,miR-21 reporter,Rango complex inh,Rango release inh,GLA inh pH 4.5
CC1CCCCN1c1ccc(N)cc1C(N)=O (stereo not given),?,0.3%,13%,-6
O=C(NCc1ccc(F)cc1)c1cc(S(=O)(=O)N2CCCCC2)ccc1N1CCOCC1,.,1.3%,-11%,.
O=S(=O)(c1cccc(C(F)(F)F)c1)N1CCN(S(=O)(=O)c2ccc3c(c2)OCCO3)CC1,.,0.3%,1%,.
COc1ccc(-c2cc(C(F)(F)F)nc(S(=O)(=O)CCCC(=O)Nc3cc(C)on3)n2)cc1OC,?,-4.4%,-8%,-9
Cc1ccc2c(CC(=O)NCc3ccc4c(c3)OCO4)coc2c1,-21%,0.0%,5%,-7
O=C(Nc1ccc(S(=O)(=O)NCC2CCCO2)cc1)c1ccc(Cl)cc1[N+](=O)[O-] (stereo not given),8%,-0.3%,-2%,-8
NC(=O)COC(=O)c1ccc(S(=O)(=O)NCc2ccco2)cc1,1%,-1.8%,0%,-19
COc1ccc(N(CC(=O)NC2CCCCC2)C(=O)CCC(=O)Nc2nc(C)cs2)cc1,-2%,-2.4%,5%,.
COc1ccc(/C=C2\CCC(C3CCCC3)C2=O)cc1OC (stereo not given),-11%,-0.5%,-4%,.
O=C(Cn1ccn(-c2ccc(F)c(Cl)c2)c(=O)c1=O)NCCc1ccccc1,.,6.9%,4%,.
Cc1ccc(/C=C(/C#N)C(=O)NC(=O)Oc2ccccc2)cc1,0%,-5.5%,1%,-1
Nc1nc(SCC(=O)Nc2ccc(F)cc2)[nH]c(=O)c1NC(=O)c1ccc(F)c(F)c1,0%,-0.6%,3%,.
CC1CC(C)CN(c2ccc(C(=O)NCc3ccc4c(c3)OCO4)cc2[N+](=O)[O-])C1 (stereo not given),-3%,-3.3%,3%,2
O=C(CSc1nc2ccccc2s1)NNC(=S)Nc1ccccc1,-8%,-1.8%,4%,-4
CCOC(=O)C1=CN2CCCC[C@@H]2CC1=O,.,-0.2%,-6%,.
COc1ccc(NC(=O)CN2c3cccc4cccc(c34)S2(=O)=O)c(OC)c1,-7%,?,-2%,-9
O=C(O)c1ccccc1OC(C(=O)Nc1cc(Cl)cc(Cl)c1)c1ccccc1 (stereo not given),-1%,-2.1%,1%,.
Cc1sc(NC(=O)C2=COCCO2)c(C(N)=O)c1C,.,2.3%,-1%,.
Cc1c(N2C(=O)/C(=C3\C(=O)N(CC(=O)O)c4ccccc43)SC2=S)c(=O)n(-c2ccccc2)n1C,-25%,-0.5%,11%,-3
C=CCOc1ccc(/C(O)=C2/C(=O)C(=O)N(CCCN3CCOCC3)C2c2ccc(OC)cc2)cc1 (stereo not given),-7%,?,-7%,-7
COc1cc(CCC(=O)OCC(=O)Nc2c(Cl)cccc2Cl)cc(OC)c1OC,4%,0.0%,11%,.
CCOc1cccc2cc(C(=O)N3CCOCC3)c(=O)oc12,-5%,1.3%,10%,.
Fc1ccccc1CSc1nnc(-c2cccs2)o1,-69%,2.2%,-3%,4
C(=N\Nc1nc(-c2ccccc2)cs1)/c1ccco1,-58%,-1.7%,7%,-8
Cc1ccc(S(=O)(=O)NCC(=O)OCC(=O)c2c(N)n(C)c(=O)n(C)c2=O)cc1,-6%,-0.6%,-14%,0
CNc1c([N+](=O)[O-])ncn1C,0%,3.7%,-10%,0
Cn1c(N)cc(=O)n(C)c1=S,.,1.9%,7%,.
O=C(COC(=O)c1cccc(S(=O)(=O)N2CCc3ccccc32)c1)NCc1ccco1,-2%,0.6%,15%,0
Cc1cc(C)c(C(=O)Nn2c(C)nc3ccccc3c2=O)cc1C,10%,-2.2%,6%,.
O=C(COc1ccc(Br)cc1Cl)NC1CCCCC1,-43%,-13%,2%,-10
CN(C)C(=S)Nc1nc2ccccc2s1,-5%,0.3%,-9%,-9
O=C(CSc1nc2ccc(Cl)cc2[nH]1)c1c[nH]c2ccccc12,-14%,-1.7%,0%,0
CCC1(CC)NC(=O)N(CC(=O)NC(=O)NCc2ccccc2)C1=O,-1%,1.3%,-3%,.
O=C(NCc1ccc2c(c1)OCO2)C1CCCN(S(=O)(=O)c2cccc3nonc23)C1 (stereo not given),-15%,-4.7%,-10%,1
Cc1cccc(NC(=S)NNC(=O)c2cc3c(s2)CCC(C)C3)c1C (stereo not given),-9%,2.9%,5%,-4
CC(=O)c1cnc2nc(SCc3ccccc3)nn2c1C,-63%,2.9%,-3%,.
N/C(Cn1cncn1)=N\OC(=O)c1ccc(Cl)cc1,3%,-0.4%,10%,3
CC(=O)Nc1ccc(S(=O)(=O)N2CCN(CC3CC4C=CC3C4)CC2)cc1 (stereo not given),5%,-1.8%,3%,3
COc1cc(O)c(C(CCN2CCCCC2)c2ccc(N(C)C)cc2)c(OC)c1 (stereo not given),0%,0.2%,-2%,2
O=C(NCC(c1cccs1)N1CCOCC1)c1cc(S(=O)(=O)N2CCOCC2)ccc1F (stereo not given),.,-1.1%,-5%,.
O=C(NCc1ccco1)c1cc([N+](=O)[O-])ccc1Cl,1%,-4.8%,-3%,-1
CCCc1cc(=O)[nH]c2nnc(SCC(=O)N3CC(C)OC(C)C3)n12 (stereo not given),.,1.0%,-10%,.
CCOC(=O)c1[nH]c2ccc(F)cc2c1N=C(C)N(CC)CC,1%,-1.0%,0%,-9
CCOc1ccccc1N1CCN(CC(=O)Nc2nnc(CC)s2)CC1,1%,-0.5%,-1%,-2
Cc1ccc(Cl)cc1NC(=O)c1cc(S(=O)(=O)N2CCOCC2)cn1C,1%&-1%,0.2%,-3%,.
COC(=O)C1=C(C)NC(=O)CC1c1cc(Br)ccc1F (stereo not given),-7%,-1.1%,-17%,1
